Screens deposited in PubChem by several laboratories.
rRNA inh HTS = reduced GFP signal of wild-type E. coli, primary screen, bacterial rRNA inhibitor project, GFP/RFP fluorescence, OD600, single point. E. coli WT GFP vs humanized-ribosome RFP mutants, 24 h; hits give low values; DMSO median 0, no signal -100. GFP signal change (wild-type ribosome), % (test concentration not listed). actives 1.6% (n = 350,000). AID 720706, 2013;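 active = significant combined selectivity score with lowered wild-type GFP, culture density cut under 30%, mutant RFP and density less affected; inactive = any of these conditions unmet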; note: one replicate is shown; some compounds called inactive have numbers as strong as hits
T cruzi repl = inhibitors of intracellular T. cruzi growth, primary screen, luminescence, NIH3T3 host cells | T. cruzi beta-gal in NIH3T3, 90 h | inhibition, % (test concentration not listed) | actives 1.4% (n = 300,000) | AID 1885, 2009;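 active = mean inhibition across valid replicates above about 55%, limit read from the data; inconclusive = mean below that limit but half or more replicates reach it; inactive = mean below it, under half of replicates reach it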;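 note: signal also drops with host cell toxicity which is not excluded here; 0% = plate median of DMSO wells and 100% = zero luminescence signal; higher percent means less beta-gal luminescence so fewer parasites; stock transfer was 50 nL into about 50 µL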
Calb FLC = C. albicans growth inhibition with fluconazole, primary screen, CaCi-2 strain, Alamar Blue fluorescence; AID 1979, 2009; growth inhibition, % (no concentration beside the values); actives 0.57% (n = 300,000); C. albicans CaCi-2 (fluconazole-resistant clinical isolate) + fluconazole, 48 h;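 active = most replicates above 75%; inconclusive = exactly half above 75%; inactive = most below 75%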;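 note: all wells also contain fluconazole at 8 µg/ml as a sub-toxic cotreatment; 0% = median of DMSO wells and 100% = median of geldanamycin control wells; wells of about 8 µL received 7.5 nL stock; the first replicate is given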
Beta cell apopt = inhibitors of cytokine-induced beta cell apoptosis, primary screen, luminescence | INS-1E cytokine-induced death, ATP luminescence, 48 h; percent of positive-control rescue, neutral wells zero | protection from apoptosis, % (test concentration not listed) | actives 0.8% (n = 300,000) | AID 435005, 2010;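 active = all replicates at 75% or more, or half of them and the mean; inconclusive = half reach 75% but not the mean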;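 note: 0% = cytokine-treated negative control wells and 100% = positive control rescue; higher means more ATP so stronger rescue from cytokine killing; wells of about 40 µL received 100 nL stock; the first replicate is given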
RanGTP-Imp inh = inhibitors of RanGTP-importin-beta interaction, primary screen, biochemical, FRET, CFP-Ran, YFP-importin-beta, homogeneous; cell-free CFP-Ran/YFP-importin-beta FRET ratio; inhibition, % (test concentration not listed); actives 1.1% (n = 300,000);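 active = most replicates above 15%; inconclusive = exactly half above 15%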;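 note: 0% = DMSO wells and 100% = Ran loaded with GDP instead of GTP; wells of about 40 µL received 100 nL stock; the first replicate is given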
A1 inh = caspase 3/7 activation in MEF A1-2A-BIM cells, primary screen, A1 inhibitor project, cell-based, luminescence, HTS | Caspase-Glo 3/7 luminescence, 3 h; percent of clofoctol response, vehicle zero | actives 0.066% (n = 330,000) | AID 2462, 2010 | caspase activation, % (concentration not given with the values);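 active = over half of replicate activation scores above 10%, or exactly half above 10 with the replicate mean above 10; inconclusive = replicate mean below 10 yet half the replicates above 10; inactive = over half of replicates below 10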;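 note: wells of about 30 µL received 50 nL stock; many hits fall short of the cut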
AF4-AF9 inh = inhibitors of AF4 peptide binding to AF9, primary screen, biochemical, AlphaScreen, biotin-AF4 peptide, FLAG-AF9, single point; Protein AF-9 (Homo sapiens), P42568; AID 651704, 2012; inhibition, % at 10 µM; actives 0.47% (n = 350,000);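 active = every replicate reaching a set inhibition limit, whatever the replicate mean, cut at about 25% in these data; inconclusive = mean inhibition reaches that limit but some replicates miss it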;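 note: 0% = plate neutral control median and 100% = total signal loss; the record names both 10 and 1 µM as test concentration; the first replicate is given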
Target sequence (P42568 whole entry, looked up): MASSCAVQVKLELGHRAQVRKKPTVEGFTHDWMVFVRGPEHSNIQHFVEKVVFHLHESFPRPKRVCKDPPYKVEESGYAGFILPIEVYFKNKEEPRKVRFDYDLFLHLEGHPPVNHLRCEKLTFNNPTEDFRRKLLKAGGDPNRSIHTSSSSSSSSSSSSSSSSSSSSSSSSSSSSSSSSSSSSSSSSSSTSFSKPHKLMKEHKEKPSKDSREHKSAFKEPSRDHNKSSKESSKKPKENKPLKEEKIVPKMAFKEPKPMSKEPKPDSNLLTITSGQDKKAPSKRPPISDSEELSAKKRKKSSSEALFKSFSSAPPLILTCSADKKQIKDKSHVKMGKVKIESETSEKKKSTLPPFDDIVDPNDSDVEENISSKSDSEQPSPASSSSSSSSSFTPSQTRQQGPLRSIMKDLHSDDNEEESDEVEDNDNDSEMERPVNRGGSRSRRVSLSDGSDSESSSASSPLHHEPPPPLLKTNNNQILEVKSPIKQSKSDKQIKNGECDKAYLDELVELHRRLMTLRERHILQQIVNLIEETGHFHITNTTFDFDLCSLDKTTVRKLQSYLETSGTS
Vif A3G = inhibitors of Vif binding to APOBEC3G peptide, primary screen, biochemical, TR-FRET, GST-Vif 1-94, biotin-A3G peptide, dose response retest (AID 1117319); one-dose inhibition, %; IC50 in µM for titrated hits; actives 0.57% (n = 260,000); Virion infectivity factor (Human immunodeficiency virus type 1 group M subtype B (isolate …; TR-FRET GST-Vif / biotin-A3G peptide binding; higher % means a stronger effect; test concentration not given here; strong numbers were not always called active;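 active = above the screen mean plus three standard deviations and confirmed in dose response; inconclusive = results disagree or hit not tested in dose response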;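 note: Vif residues 1-94 fused to GST binding biotinylated APOBEC3G peptide 110-148; 0% = full assay without inhibitor and 100% = GST in place of GST-Vif; retest series ran down from 100 µM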
rRNA inh HTS OD600 = also measured in rRNA inh HTS; calls as there; OD600 change, %; measured here: OD600 growth;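 optical density of the mix in the first replicate; 0 = DMSO median and -100 = no signal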
rRNA inh HTS RFP = recorded beside rRNA inh HTS, whose call it bears; RFP signal change, %; measured here: RFP humanized mutant strains;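 first replicate; 0 = DMSO median and -100 = no signal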
Starred values were filed as active, the others as inactive; ? = inconclusive; . = not tested or not shown; & = joins results of further samples.

molecule	rRNA inh HTS	rRNA inh HTS OD600	rRNA inh HTS RFP	T cruzi repl	Calb FLC	Beta cell apopt	RanGTP-Imp inh	A1 inh	AF4-AF9 inh	Vif A3G
CC(C)c1ccccc1-n1c(SCC(=O)N2CCN(c3ccccc3)CC2)nnc1-c1cccnc1	.	.	.	19	-8	3	0.1	1.1	.	-2%
NC(=O)CN(Cc1ccccc1)S(=O)(=O)c1ccc2c(c1)OCCO2	4	5	-0.9	-13	7	-4	19*	1.1	-3.1	.
CC(C)C(=O)N=c1sc2cc(F)cc(F)c2n1C	6	13	4.3	1	-1	7	-0.1	0.0	-3.6	-6%
Cc1[nH][nH]c(=O)c1N=Nc1ccc(Br)c(Cl)c1	9	14	8.1	-22	15	-3	5.8	-4.1	-1.5	.
Cc1ccc2c(c1)CCCN2C(=O)CCc1nc2ccccc2c(=O)[nH]1	6	-1	2.1	.	.	3	.	1.4	2.8	.
O=C(CCSc1nnc(-c2ccccc2)o1)N1CCOCC1	5	6	-2.3	-5	1	-9	0.9	1.0	5.3	.
CCOC(=O)C1=C(C)NC(=O)NC1c1cccnc1 (centres undefined)	.	.	.	-12	-2	.	2.4	-0.2	.	30%
CCO[C@H]1OC(C(=O)N2CCN(Cc3ccccc3)CC2)=C[C@@H](c2ccccc2)[C@@H]1CCCO	-32*	-25*	1.4*	34	6	6	-4.7	0.0	3.4	22%
CCCC1CCC(C(=O)n2nc(N)c3cc4ccc(OC)cc4nc32)CC1 (centres undefined)	6	13	-2.2	2	-1	-21	-7.2	-0.5	1.9	-1%
O=C1/C(=C\c2ccc(O)cc2)SC(=S)N1c1cccnc1	18	16	3.5	-9	?	-11	2.1	-5.7	-5.0	1%
Cc1ccc(-c2nc(CSCC(=O)NCCN3CCN(Cc4ccccc4)CC3)c(C)o2)cc1	.	.	.	8	-15	21	7.8	?	.	-9%&-3%
Cc1ccoc1C(=O)Nc1ccc(CC(=O)O)cc1	0	7	0.2	-13	-6	9	-0.2	-3.6	.	2%
CCCn1c(SCC(=O)Nc2cccnc2Cl)n[nH]c1=O	11	4	2.4	.	.	5	.	-0.5	-0.2	.
CC1(C)CC(=O)C=C(Nc2ccc(O)c(C(=O)O)c2)C1	12	13	0.9	-6	5	-1	-2.6	-1.2	1.5	.
Cc1cccc(-c2nc(CN3CCCC(C(=O)NC4CCCC4)C3)c(C)o2)c1 (centres undefined)	.	.	.	46	21	4	2.1	0.2	.	1%
O=C(NCc1ccc(Cl)cc1)c1cc(=O)nc2sc(-c3ccccc3)nn12	6	-1	5.2	-10	-4	2	5.5	0.1	2.7	1%
CCN1CCN(Cc2nc3c(c(=O)n(C)c(=O)n3C)n2C(C)C(C)=O)CC1 (centres undefined)	.	.	.	-5	-13	.	3.3	0.1	.	?
O=C(/C=C/c1ccccc1Br)c1ccc2c(c1)OCO2	-4	-30	3.8	-9	7	3	4.4	-4.5	4.2	.
CNc1ccc(C(=O)OCC(=O)NC(=O)NC2CCCCC2)cc1[N+](=O)[O-]	4	1	1.2	.	.	10	.	1.4	-2.8	-6%
COc1ccccc1OCCCc1c(C)n[nH]c1C	-9	-10	-2.2	-39	-7	-4	0.1	0.7	-6.3	2%
CCCC(C)NC(=O)c1ccc(-c2ccccc2)cc1 (centres undefined)	.	.	.	-6	-5	6	-1.1	-2.3	.	-6%
CC1CCCC(C)N1C(=O)COC(=O)c1cc(=O)[nH]c2ccccc12 (centres undefined)	-5	-3	-3.5	.	.	0	.	-1.1	-1.0	-5%
CCCc1cc(=O)oc2c(C)c(OCC(=O)Nc3cccnc3)ccc12	-1	14	-2.6	-4	-3	-4	?	?	0.4	.
CCC(C)Sc1ccc([C@H]2N[C@@](C)(C(=O)OC)[C@H]3C(=O)N(C)C(=O)[C@@H]23)cc1 (some centres undefined)	-5	-6	-11	.	.	-1	.	0.2	-0.2	.
COc1ccccc1Oc1cc(F)nc(N)n1	.	.	.	4	-16	-8	2.8	0.3	.	19%
CS(=O)(=O)N(CC(=O)NC1CCCCC1)Cc1ccc(Cl)cc1	.	.	.	-15	10	-4	-4.1	-1.6	.	1%
CC(C)(CC(=O)O)CC(=O)NCc1c(Cl)cccc1Oc1ccccc1	-3	3	-0.6	-36	4	-2	?	0.9	-3.3	4%
O=C(c1cc(F)ccc1F)N1CCC(N2CCC(C(=O)N3CCCC3)CC2)CC1	17	17	4.1	3	-5	2	5.5	0.8	-2.9	.
O=C(/C=C\c1ccccc1)Nc1ccc(NC(=O)c2ccco2)cc1	1	11	-4.6	-68	9	-2	-2.2	1.2	-1.8	-5%
O=C(O)CCCN1C(=O)C(=O)/C(=C(/O)c2ccccc2)C1/C=C/c1ccccc1 (centres undefined)	0	1	-2.6	6	-2	0	-0.2	1.4	-1.4	6%

Shown with two lines to a compound: entries from further up.
Every second line gives: rRNA inh HTS | rRNA inh HTS OD600 | rRNA inh HTS RFP | T cruzi repl | Calb FLC | Beta cell apopt | RanGTP-Imp inh | A1 inh | AF4-AF9 inh | Vif A3G
> O=C(NCc1ccc(Cl)cc1)c1cc(=O)nc2sc(-c3ccccc3)nn12
→ 6 | -1 | 5.2 | -10 | -4 | 2 | 5.5 | 0.1 | 2.7 | 1%
> CCN1CCN(Cc2nc3c(c(=O)n(C)c(=O)n3C)n2C(C)C(C)=O)CC1 (centres undefined)
→ . | . | . | -5 | -13 | . | 3.3 | 0.1 | . | ?

Next section.
molecule	rRNA inh HTS	rRNA inh HTS OD600	rRNA inh HTS RFP	T cruzi repl	Calb FLC	Beta cell apopt	RanGTP-Imp inh	A1 inh	AF4-AF9 inh	Vif A3G
COc1ccccc1NC(=O)CN1CCSc2ccccc21	-21*	-14*	0.5*	-2	-22	-3	-1.6	1.9	3.4	12%
CCN1c2ccccc2-c2nc3ccccc3n2C1c1cccs1 (centres undefined)	-22	-22	-2.9	-1	-6	4	3.1	0.5	-6.0	.
COc1ccccc1Nc1nc(N)nc(CN2CCN(Cc3ccc4c(c3)OCO4)CC2)n1	-12	-1	7.0	-13	-26	3	-1.0	0.7	1.6	4%
CC1CCN(CC(=O)Nc2ccccc2C(=O)c2ccccc2)CC1	-14	-15	-4.5	17	-13	-5	5.0	0.6	1.2	?
CCn1nnc(NC(=O)COc2ccc(C3CCCCC3)cc2)n1	-28	-41	-1.5	-10	-13	-10	-0.4	-0.4	?	0%
CC(NC(=O)Cc1cccs1)C(c1cccs1)N1CCOCC1 (centres undefined)	.	.	.	-4	4	-5	0.5	-0.3	.	-6%
COc1cc(O)c(CCC(=O)c2cc(OC)c(OC)c(OC)c2)c(OC)c1	.	.	.	1	0	-6	1.8	0.2	.	5%
CC(C(=O)OCC(=O)c1ccc([N+](=O)[O-])cc1)N1C(=O)C2C3CCC(C3)C2C1=O (centres undefined)	18	12	-0.2	-6	-5	0	3.5	1.1	-13	-6%
O=C(Cc1ccc(Br)cc1)NC1CCN(Cc2ccccc2)CC1	7	7	0.6	52	0	24	0.7	-0.2	0.1	.
O=CN1CCN(C(=S)Nc2ccc(OC(F)F)cc2)CC1	-2	1	-2.8	5	-8	-5	-0.9	0.3	5.0	11%
COC(=O)C1=C(O)/C(=C\c2ccc(OCC(=O)Nc3ccc(OC)cc3)cc2)N=C1C	17	12	2.2	-12	3	-4	13	0.8	-4.3	.
Cc1ccc(C(=O)NC(C)c2ccc(C)c(C)c2)s1 (centres undefined)	.	.	.	1	0	-2	-3.6	1.1	-0.8	.
O=S(=O)(c1ccc(S(=O)(=O)N(Cc2ccccc2)Cc2ccco2)cc1)N1CCCC1	4	12	-1.9	10	-5	-2	-4.7	0.5	.	-3%
Cc1cc(NC(=O)NC(=O)c2ccccc2F)no1	14	5	0.6	3	0	0	-2.2	-1.6	-0.7	0%
CCOC(=O)c1c(NC(=O)c2c(C(=O)O)cccc2[N+](=O)[O-])sc(C)c1C	8	7	-0.6	4	0	3	3.0	-0.4	-0.6	2%
COc1ccc(C2NN=C(c3c[nH]c4ccccc34)C2O)cc1 (centres undefined)	6	-6	6.6	0	9	4	-0.7	-1.0	1.9	-2%
CC1CCN(c2ccc(NC(=O)c3ccc(Br)o3)cc2)CC1	7	7	6.5	10	27	9	-4.3	-6.4	0.8	.
CC(C(=O)NCCc1nc2ccccc2[nH]1)n1cc([N+](=O)[O-])cn1 (centres undefined)	9	7	3.6	24	8	0	?	0.3	0.2	?
Cc1nn(Cc2ccc(Cl)c(Cl)c2)c(C)c1NC(=O)c1cn(-c2ccccc2)nc1-c1ccccc1	.	.	.	61*	4	-14	6.6	0.0	.	13%
O=C(c1cc(F)ccc1F)C1CCCN(C(=O)c2ccc(F)cc2Cl)C1 (centres undefined)	-28	-30	-3.9	8	7	-2	1.0	-0.6	0.1	-6%
C[C@@H]1C=C(C(=O)NC2CC2)O[C@H](OCc2ccc(CO)cc2)C1	8	4	-3.1	-21	-48	-2	7.0	0.0	-2.9	-1%
COc1ccc(C(=O)NCC(c2cccnc2)N2CCN(c3ccc(F)cc3)CC2)cc1OC (centres undefined)	-14	-22	-3.5	.	.	-2	.	-0.3	1.4	24%
COc1oc(-c2ccccc2)nc1C(F)(F)F	.	.	.	-32	10	-4	?	3.4	.	5%
CC(C)C(NC(=O)c1ccco1)C(=O)OCC(=O)c1ccccc1 (centres undefined)	0	1	0.6	8	-2	5	0.3	0.0	2.0	.
COc1cc(CC(=O)NNC(=O)c2cc(C)oc2C)cc(OC)c1OC	.	.	.	-4	9	-5	0.2	0.4	.	.
COc1cc(/C=C2/C(=O)N(c3ccccc3)N=C2C)ccc1OS(=O)(=O)c1ccccc1	.	.	.	-9	16	-4	4.6	-0.5	.	.

An excerpt from above, reduced to RanGTP-Imp inh and Vif A3G.
molecule	RanGTP-Imp inh	Vif A3G
Cc1nn(Cc2ccc(Cl)c(Cl)c2)c(C)c1NC(=O)c1cn(-c2ccccc2)nc1-c1ccccc1	6.6	13%
O=C(c1cc(F)ccc1F)C1CCCN(C(=O)c2ccc(F)cc2Cl)C1 (centres undefined)	1.0	-6%

A portion of the library; count on the stated rates, not on these rows.
